# Screens deposited in PubChem by several laboratories.
# PABP FP inh – blocks human PABP binding to poly(A) RNA | P11940 | fluorescence polarization | inhibition, % at 35 µM | 290,000 compounds, 1% hits | AID 2014;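 active means 50% or more with normal probe brightness, or confirmed in later tests; about a fifth of its hits are not listed in these tables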;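 further: calls also rest on retests at 20 µM and on dose response follow-up; controls were probe without protein and protein plus probe with vehicle; some compounds called inactive have numbers as strong as hits; many hits fall short of the cut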
# Target sequence (P11940 whole entry, looked up): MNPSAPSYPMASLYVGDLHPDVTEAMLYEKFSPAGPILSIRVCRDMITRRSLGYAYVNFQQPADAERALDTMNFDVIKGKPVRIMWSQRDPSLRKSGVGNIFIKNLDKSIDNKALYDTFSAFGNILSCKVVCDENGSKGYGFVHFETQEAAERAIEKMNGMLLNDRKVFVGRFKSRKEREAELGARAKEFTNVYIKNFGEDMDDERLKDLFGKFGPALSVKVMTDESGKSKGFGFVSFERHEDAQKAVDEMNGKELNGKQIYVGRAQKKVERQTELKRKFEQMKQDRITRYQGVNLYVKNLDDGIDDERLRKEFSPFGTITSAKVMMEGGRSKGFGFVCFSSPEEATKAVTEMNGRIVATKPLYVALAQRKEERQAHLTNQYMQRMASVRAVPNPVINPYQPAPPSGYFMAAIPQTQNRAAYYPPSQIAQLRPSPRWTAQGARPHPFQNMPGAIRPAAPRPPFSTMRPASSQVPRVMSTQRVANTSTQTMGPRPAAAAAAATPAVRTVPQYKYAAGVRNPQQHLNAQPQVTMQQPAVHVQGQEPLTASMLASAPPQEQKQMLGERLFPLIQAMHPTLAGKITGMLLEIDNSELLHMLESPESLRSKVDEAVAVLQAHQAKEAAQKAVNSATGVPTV
# CSC inhib – cancer stem cell inhibition. cancer stem cell-like cells viability, luminescence. inhibition, % at 7.5 µM. 300,000 compounds, 1.1% hits. AID 2717;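 active means mean at 75% or more and at least half the replicates too; tested in HMLE shEcad cells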;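 further: 0% = median of negative and 100% = median of positive control wells; the first replicate is given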
# UUG fidelity – modulators of start codon recognition fidelity in yeast; S. cerevisiae UUG-firefly luciferase reporter, luminescence/redox ratio; activity score, % at 18.7 µM; 350,000 compounds, 0.13% hits; AID 602363;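 active means replicate mean at a twofold rise or more, about +100% in these data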;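 further: firefly luciferase made from a UUG start codon reports start codon fidelity; reporter light over untreated wells divided by growth signal over untreated wells; some hits fall short of that in this replicate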
# Rce1 inhib – blocks yeast Ras-converting enzyme; Q03530; yeast membranes, quenched prenylated peptide cleavage fluorescence; calls only; 290,000 compounds, 0.27% hits;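 active means fall in fluorescence gain of 50% or more versus controls, with final raw signal at or below 3038400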;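 further: plate controls were neutral control wells for no effect and wells lacking membranes for full effect; tested at 10 µM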
# MT1-MMP act inh – inhibitors of human MT1-MMP activation. HT1080 RFP-PRO-GFP cells, GFP/RFP ratio fluorescence, overnight; percent of plate control window, DMSO zero. P50281. GFP/RFP ratio change, % at 20 µM. 360,000 compounds, 0.061% hits;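 active means GFP/RFP ratio change of at least 30% with cell ATP level not reduced by more than half and red fluorescence within 50% of control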; further: strong numbers were not always called active
#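 Test system: HT1080 RFP-PRO-GFP cells; Benchmarks: DMSO and RFP-L50D-GFP cell wells; Timing: cells overnight before dosing, compound overnight, 37 °C, 5% CO2; Compound: one 20 µM compound dose with 1% DMSO; Read-out: GFP/RFP fluorescence ratio.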
# eIF4H inh – inhibitors of RNA binding by human eIF4H; Q15056; eIF4H fluorescence polarization binding assay; inhibition, % at 35 µM; 290,000 compounds, 0.94% hits; AID 2012;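 active means 50% or more with normal probe brightness, or confirmed in later tests; about a fifth of its hits are not listed in these tables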;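 further: calls also rest on retests at 20 µM and on dose response follow-up; 0% = protein and probe with vehicle and 100% = probe without protein; strong numbers were not always called active; many hits fall short of the cut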
# Env fusion inh – blocks HIV Env-driven cell-cell fusion. HeLa-JRFL Env/CEM21 cell fusion, luciferase. inhibition, % at 12.3 µM. AID 651610. 360,000 compounds, 1.1% hits;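 active means mean replicate inhibition score of at least 50 and every replicate individually at or above 50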;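 further: 0% = plate neutral controls and 100% = maraviroc near 300 nM; one replicate is shown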
# eIF4H inh retest – also measured in eIF4H inh; calls as there; inhibition, %; compound at 20 µM; confirmation average;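 mean of two retest wells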
# PABP FP inh retest – recorded beside PABP FP inh, whose call it bears; inhibition, %; compound at 20 µM; confirmation repeats;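 mean of two retest wells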
# MT1-MMP act inh RFP – also measured in MT1-MMP act inh; calls as there; RFP signal change, %; measured here: RFP expression control read;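 0 = vehicle wells; hits needed this value within 50% of zero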
# An asterisk follows results filed as active; i = inactive; nt = not tested or not shown; & = joins results of further samples.
SMILES,PABP FP inh,CSC inhib,UUG fidelity,Rce1 inhib,MT1-MMP act inh,MT1-MMP act inh RFP,eIF4H inh,Env fusion inh,others
Clc1ccc(-n2c(SCc3nc4ccccc4[nH]3)nnc2-c2ccncc2)cc1,0,5,-12,i,13,5,4,0,
O=C(Cc1cc(=O)[nH][nH]1)N/N=C/c1cccc(Cl)c1Cl,-8&11,3&0,nt,i,1&5,0&-1,10&16,-20&7,
Cn1c(SCC(=O)NNC(=S)Nc2ccccc2)nnc1-c1ccccc1,-6,-7,-42,i,2,1,5,-5,
CCCC[n+]1ccn(-c2nc3ccccc3nc2[N-]S(=O)(=O)c2cccs2)c1,-5,-16,-2,i,2,-12,-8,-8,
COC(=O)C1C2CCC(C2)C1C(=O)OCC(=O)c1ccc(C)cc1 (configuration not stated),7,-5,-6,i,-2,-1,-2,-14,
C=C(C)c1cccc(C(C)(C)NC(=O)Nc2ccc(OC)nc2)c1,30,-7,-2,i,-9,5,35,-15,
N#Cc1ccc(C23CC4(C2)[C@H](CN(Cc2ccc(-c5ccccc5)cc2)[C@@H]4c2ccccc2)C3c2ccc(C(F)(F)F)cc2)cc1 (some centres not stated),-11,10,nt,i,nt,nt,-11,-61,
O=C(COC(=O)COc1ccc(Cl)cc1Cl)NC1CC1,nt,-11,-14,nt,0,1,nt,nt,
Cc1ccccc1-c1nc(CS(=O)(=O)CC(=O)N2CCOCC2)c(C)o1,0,-2,-3,i,0,0,-7,4,
Cc1cccc(NC(=O)CCC(=O)N/N=C/c2ccc(O)cc2O)c1,5,79*,-16,i,-1,-2,12,10,
CCn1c(SCC(=O)NCCOC)nc2sc(C)c(C)c2c1=O,-4,nt,nt,i,nt,nt,12,nt,
COc1ccc(-c2noc(N3CCC(C(=O)Nc4cccc(OC)c4)CC3)n2)cc1,-2,0,-10,i,nt,nt,3,27,
COc1ccc(S(=O)(=O)N2CCCC2CNC(=O)C(=O)NCc2ccc(C)cc2)cc1 (configuration not stated),nt,nt,15,i,2,-7,nt,nt,
CCn1c(SC2CCOC2=O)nnc1-c1ccc(Cl)cc1 (configuration not stated),49,-3,nt,nt,0,0,2,10,
COc1cc(/C=C2/C(=N)N3N=C(CC(=O)N4CCOCC4)SC3=NC2=O)ccc1OCc1ccc(F)cc1,5,2,3,i,-2,3,0,-22,
O=C(NCCc1ccccc1)c1cc(-c2ccc3c(c2)OCO3)on1,12,55,20,i,5,-1,4,8,
CCOC(=O)CNCCC(=O)c1ccc(Br)cc1,8,7,nt,i,1,7,5,nt,
COc1ccc2nc(-c3ccc(F)cc3)sc2c1,nt,3,-78,i,-1,-3,nt,-163,
O=C(COc1ccccc1)Nc1ccc2[nH]ncc2c1,5,-22,-16,i,0,-1,-2,-6,
O=C(c1ccc(S(=O)(=O)N2CCCC2)cc1)N1CCN(c2cccc(Cl)c2)CC1,-16,7,1,i,0,-7,-17,21,
CC1CCN(C(=S)c2cccc(O)c2)CC1,6,nt,-26,i,1,3,-8,2,
O=C(O)CC1NC(=S)N(c2ccccc2)C1=O (configuration not stated),-4,nt,-34,i,-1,1,-13,-63,
CN(CC(=O)Nc1ccccc1Cl)C(=O)c1ccc(COc2ccccc2)cc1,nt,-2,3,i,0,-3,nt,11,
Cc1ccc(C(=O)COC(=O)[C@@H](NC(=O)c2ccco2)C(C)C)s1,nt,-16,-2,nt,0,2,nt,16,
CCOC(=O)c1cnc2ccc(OCC)cc2c1N1CCN(C)CC1,-7,-6,-2,i,-3,-5,-10,nt,
O=C(COC(=O)c1ccc([N+](=O)[O-])s1)c1ccc[nH]1,nt,5,-1,nt,-2,0,nt,-1,
Cc1ccc(CSc2nnc(SCC(=O)N/N=C/C=C/c3ccco3)s2)cc1,2,17,nt,i,-1,0,84,2,eIF4H inh retest=5;PABP FP inh retest=12
NNC(=O)c1nnn(-c2nonc2N)c1CN1CCCC1,0,2,-14,i,0,1,-1,-3,
Cc1onc(C(=O)Nc2ccccc2C(F)(F)F)c1[N+](=O)[O-],11,nt,2,i,-1,0,7,-2,
O=c1[nH]c(N2CCCCC2)nc2c1CCCC2,-11,-17,nt,i,1,13,-8,-16,
CC(=O)Nc1cccc(-c2ccnc3c2CC(C(=O)NCc2ccc(F)c(F)c2)O3)c1 (configuration not stated),nt,nt,-7,nt,3,-11,nt,26,
COc1ccccc1N1C(=O)c2cccc3c(Cl)ccc(c23)C1=O,-2,14,-1,i,-58,0,4,15,
CCOC(=O)c1sc2nccc(OC)c2c1N=CNOC,5,-15,nt,i,-1,-2,0,7,
C[C@@H]1CN([C@@H](C)CO)C(=O)CCCn2nncc2CO[C@@H]1CN(C)S(=O)(=O)c1ccccc1F,nt,nt,-11&-20&5,nt,1,5,nt,-6,
CCCc1cc(=O)oc2c3c(c4c(c12)OC(C)(C)C=C4)OC(C)C(C)C3O (configuration not stated),-4,-9,-11,i,-5,-10,-4,nt,
O=C(OC1CCCCC1)c1ccc(NC(=O)c2ccco2)cc1,-9,11,-14,i,8,-14,-7,nt,
Cn1cc(Cl)c(C(=O)Nc2nc3ccc([N+](=O)[O-])cc3s2)n1,-10,16,nt,nt,0,-3,-23,-6,
Cn1ncc(Cl)c1C(=O)Nc1ccc(CN2CCCCC2)cc1,6,-2,4,i,1,5,9,-6,
Cc1cc(C)n2c(=O)c3ccc(Cl)cc3nc2c1C#N,-14,-12,nt,i,-2,3,0,3,
CSCCNC(=O)c1ccc2nc(C3CCCCC3)oc2c1,1,-13,-8,i,-1,-3,8,-12,
CN(C(=O)c1ccno1)c1nnc(-c2cnccn2)s1,16,11,-33,i,-1,3,2,-76,
Cc1ccc2c(CN3CCN(S(=O)(=O)c4ccc5c(c4)OCCO5)CC3)cc(=O)oc2c1C,5,3,-19,i,-14,-21,8,93*,
CCSc1nnc(NC(=O)CSc2nnc(CNC(=O)c3cc(OC)c(OC)c(OC)c3)o2)s1,0,-9,-11,i,-7,3,-8,6,
O=C1CSC(c2cccc([N+](=O)[O-])c2)N1c1ccccc1F (configuration not stated),34,-1,nt,i,-5,-1,-5,7,
COc1ccc(CC(=O)NNC(=S)NC(=O)c2cc(OC)c(OC)c(OC)c2)cc1,nt,nt,-21,nt,10,3,nt,1,
O=C(CCCc1ccccc1)NCc1cccnc1,15,nt,-24,i,4,5,3,-20,
COc1ccc(NC(=O)c2ccc3nc(-c4ccccc4)c(-c4ccccc4)nc3c2)c(OC)c1,0,25,nt,i,-6,-6,-4,12,
O=C1CNC(=S)N1Cc1ccccc1Cl,-2,0,-26,i,-7,10,-2,-3,
O=C(c1cccs1)N1CC=C(c2ccccc2)CC1,nt,nt,-8,nt,-1,4,nt,-13,
CC(C)(C)C(=O)NC(=S)Nc1ccccc1N1CCCC1,-14,-3,nt,i,2,9,7,0,
# The listing continues.
SMILES,PABP FP inh,CSC inhib,UUG fidelity,Rce1 inhib,MT1-MMP act inh,MT1-MMP act inh RFP,eIF4H inh,Env fusion inh,others
C[C@H]1CN([C@@H](C)CO)C(=O)CCCn2cc(nn2)CO[C@@H]1CN(C)S(=O)(=O)c1ccc(-n2cccn2)cc1,nt,nt,8,nt,-1,1,nt,-3,
NC(=O)c1cc(S(=O)(=O)NCc2ccc(Br)cc2)cs1,-9,-6,-1,i,5,-4,0,-4,
COc1ccc(C(c2nnnn2CC2CCCO2)N2CCN(c3ccccc3)CC2)cc1 (configuration not stated),8,1,4,i,3,0,-4,nt,
O=[N+]([O-])c1cc(S(=O)(=O)N2CCCC2)ccc1N/N=C/c1cccs1,-1,-3,-5,i,9,-4,-2,12,
Cc1cc(=O)oc(C)c1C(=O)Nc1ccc2nsnc2c1,-2,-3,-13,i,1,3,6,nt,
CN(C)CCNc1nc(-c2ccccc2)nnc1C(F)(F)F,1,-9,-22,i,6,9,0,nt,
Cc1cc(C(=O)Nc2sc3c(c2C#N)CCCC3)no1,-11,22,-12,i,-1,-2,-6,nt,
O=C(NN1C(=O)C2C3c4ccccc4C(c4ccccc43)[C@@H]2C1=O)c1ccccc1 (some centres not stated),12,4,nt,i,1,3,10,-17,
COc1ccc(CC(=O)NC2CC2)cc1OC,6,nt,2,i,-1,0,6,1,
Cc1cc2ccccn2c1C(=O)Nc1ccccc1,6,-8,nt,i,1,5,2,-18,
CC(C)(C)NC(=O)C(c1ccco1)N(C(=O)Cn1nnc(-c2ccc(F)cc2)n1)c1cccc(F)c1 (configuration not stated),-7,nt,nt,i,-1,5,8,nt,
C=CCN1C=CC(=O)CC1,-15,-1,-13,i,2,2,-9,-28,
C#CCOCCOCCOCCNc1nc(N2CCN(C(=O)[C@H](CCC(=O)O)n3cc(C(N)[C@H](C)CC)nn3)CC2)nc(N2CCN(C(=O)[C@H](Cc3cc4ccccc4[nH]3)n3cc(C(N)[C@H](C)CC)nn3)CC2)n1 (some centres not stated),6,-7,nt,i,nt,nt,1,nt,
O=C(Cc1coc2ccc3ccccc3c12)N1CCN(c2ncccn2)CC1,0,-10,-10,i,-2,6,0,6,
Cc1ccc2cc3c(N)c4c(C)ccc(C)c4nc3nc2c1,5,nt,nt,i,-30,1,79,-11,eIF4H inh retest=9;PABP FP inh retest=22
COCc1cc(C)n(CC(=O)Nc2ccccc2OC)c(=O)c1C#N,4,1,-9,i,-2,1,-4,-3,
CCN(CC)C(=O)COc1ccc(-c2ccccc2)cc1,-6,2,3,i,1,4,-4,nt,
COc1cc(NC(=O)Nc2nc(C(N)CCc3ccccc3)cs2)cc(OC)c1OC (configuration not stated),nt,nt,-2,nt,3,-3,nt,11,
C=CSc1sc(Cl)c(N(CC)CC)c1[N+](=O)[O-],31,3,nt,i,2,1,37,15,
CC(C)c1ccc(NC(=S)N(C)CCc2ccccn2)cc1,-2,5,nt,i,4,0,-3,-4,

# Quoted at random: two entries already listed, in no set order.
SMILES,PABP FP inh,CSC inhib,UUG fidelity,Rce1 inhib,MT1-MMP act inh,MT1-MMP act inh RFP,eIF4H inh,Env fusion inh,others
O=C(Cc1coc2ccc3ccccc3c12)N1CCN(c2ncccn2)CC1,0,-10,-10,i,-2,6,0,6,
Cc1ccc2cc3c(N)c4c(C)ccc(C)c4nc3nc2c1,5,nt,nt,i,-30,1,79,-11,eIF4H inh retest=9;PABP FP inh retest=22

# The results go on:
SMILES,PABP FP inh,CSC inhib,UUG fidelity,Rce1 inhib,MT1-MMP act inh,MT1-MMP act inh RFP,eIF4H inh,Env fusion inh,others
O=C(O)CCN1C(=O)C2C3CC(C2C1=O)C1C(c2ccccc2)c2sc(=O)n(-c4ccccc4)c2SC31 (configuration not stated),-5,-9,nt,i,-8,-5,2,-1,
CCOC(=O)N1CCN(c2ccnc3cc(Cl)ccc23)CC1,13,-1,-3,nt,-1,-3,-5,51,
COc1ccc(OCC(=O)OC2CCCN(C)C2)cc1 (configuration not stated),0,9,nt,i,-1,3,0,4,
FC(F)(F)c1nnc(Nc2ccc(Cl)cc2)s1,1,12,-23,i,1,-8,-7,-7,
CNC(=O)c1ccsc1NC(=O)C1CCN(S(=O)(=O)c2ccc(Cl)s2)CC1,nt,43,-1,i,2,-1,nt,-371,
Cc1ccc(-c2ccccc2)n1-c1ccc(C(=O)O)cc1,-2,7,-14,nt,-1,-1,2,11,
CCc1nc2ccccc2n1Cc1cc(=O)n2cc(C)ccc2n1,-3,1,-14,nt,-1,2,1,6,
Cc1nnc(NC(=O)c2ccc(S(=O)(=O)N3CCCCC3C)cc2)o1 (configuration not stated),-2,16,-19,i,-3,-4,-3,-53,
Cc1ccc(S(=O)(=O)N(CC(=O)NCC2CCCO2)Cc2cccc(C)c2)cc1 (configuration not stated),-1,-10,-5,i,-2,1,-9,-1,
O=C(Oc1nsnc1N1CCOCC1)c1ccccc1,-8,-10,-9,i,6,6,5,nt,
O=C(Cn1ccc2ccccc2c1=O)NCC(=O)N1CCN(c2ccc(F)cc2)CC1,4,-8,-18,i,1,2,-4,3,
